Salmonella PhoP GFP: inhibitors of PhoP regulon expression, primary screen, Salmonella Typhimurium, GFP reporter (AID 1863); actives 0.16% (n = 300,000); one-dose inhibition, % at 50 µM; IC50 in µM for titrated hits; S. Typhimurium PhoP-regulated promoter GFP reporter, 4 h; higher % means a stronger effect;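 active means inhibition over 29.93%, a cutoff 3 SD above the screen mean, later confirmed by dose response; inconclusive means inhibition over 29.93% but no dose response follow-up; inactive means inhibition at most 29.93% or unconfirmed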;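 further: 0% = low Mg2+ inducing control and 100% = high Mg2+ repressing control; strong numbers were not always called active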
SIAH1 antagonists: Siah-1 peptide-binding antagonists, primary screen, biochemical, fluorescence polarization, rhodamine-plectin, uHTS (AID 1817); actives 0.02% (n = 290,000); Siah-1 / rhodamine-plectin peptide fluorescence polarization; higher % means a stronger effect; displacement, % at 20 µM; hits with a dose series show IC50 in µM;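 active means displacement of at least 50% at 20 µM, with a fluorescence ratio check between 0.3 and a set limit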;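 further: plate controls were Siah plus tracer with DMSO for no effect and tracer alone without Siah for full effect; strong numbers were not always called active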
HIV peptide binding: inhibitors of HIV fusion peptide binding, primary screen, biochemical, uHTS, fluorescence dequenching (AID 1986). actives 0.3% (n = 290,000). cell-free peptide binding, fluorescence dequenching, 30 min; higher % means a stronger effect. inhibition, % at 20 µM; hits with a dose series show IC50 in µM; in the data active means inhibition mostly above about 52%, no sharp cut-off; inactive means mostly below about 76%; further: some results filed as inactive read as strong as hits
Myeloid diff 2: induction of myeloid progenitor differentiation, primary screen, cell-based, flow cytometry, MLPCN library; ER-HoxA9 myeloid progenitors, lysozyme-GFP differentiation; calls only at 10 µM; actives 1% (n = 360,000); AID 624256, 2012;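 active means normalized GFP-positive differentiation at or above the plate's own cutoff, the solvent-only control mean plus 3 SD; inconclusive means no clear call, values can overlap the other calls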;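 further: cells exposed to compound for four days before flow analysis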
KOR beta-arrestin-1: KOR antagonists, beta-arrestin recruitment, cell-based, luminescence, uHTS (AID 1778) | KOR beta-arrestin recruitment, luminescence, antagonist mode; higher % means a stronger effect | one-dose inhibition, % at 10 µM; IC50 in µM for titrated hits | actives 0.091% (n = 290,000); further: strong numbers were not always called active
KOR beta-arrestin-2: KOR agonists, beta-arrestin recruitment, primary screen, cell-based, luminescence, uHTS (AID 1777); KOR beta-arrestin recruitment, luminescence; higher % means a stronger effect; actives 0.02% (n = 280,000); one-dose activation, % at 10 µM; EC50 in µM for titrated hits; Kappa-type opioid receptor (Homo sapiens); in the data active means activation above about 50%, passing the limit was not always enough; further: a part of the inactive calls stands beside numbers as strong as those of hits
LYP phosphatase: inhibitors of LYP phosphatase, biochemical, fluorescence intensity, uHTS (AID 1779). recombinant LYP phosphatase, fluorescence intensity; higher % means a stronger effect. inhibition, % at 11.5 µM; hits with a dose series show IC50 in µM. actives 0.054% (n = 290,000);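 further: plate controls were vehicle with enzyme for no effect and no enzyme for full effect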
Myeloid diff 2 GFP+ MAC1+ %: also measured in Myeloid diff 2; calls as there; GFP+ MAC1+ double positive, %; measured here: differentiation confirmed by MAC1 staining
Active calls of the source: *; i = inactive; ? = inconclusive; · = no result given. Unless noted, no stated cut-off is given here; in the data, active means inhibition above about 50%; inactive means the rest. A portion of the library. The share of hits here may be higher or lower than overall.

SMILES	Salmonella PhoP GFP	SIAH1 antagonists	HIV peptide binding	Myeloid diff 2	Myeloid diff 2 GFP+ MAC1+ %	KOR beta-arrestin-1	KOR beta-arrestin-2	LYP phosphatase
N#CC1=C(N)C(C#N)(C#N)C(c2cccnc2)C2CC(c3ccccc3)CC=C12 (stereo not given)	0%	3%	1.5%	i	0.2	-12%	4.8%	-5%
CCOc1ccc(-n2c(C)c(C(C)=O)c3cc(OC(C)=O)ccc32)cc1	-1%	4%	0.9%	i	0.4	-4%	-1.8%	-5%
C/C(=N\NC(=O)c1nnn(-c2nonc2N)c1-c1ccccc1)c1ccccc1O	-5%	8%	-0.4%	?	·	-41%	-5.4%	-8%
C=CCNC(=S)N/N=C(\C)c1ccccn1	-1%	-9%	0.2%	?	·	3.3µM*	7.1%	-1%
COc1cccc(-n2nnnc2S(C)(=O)=O)c1	7%	1%	4.6%	?	·	22%	0.4%	-7%
O=S(=O)(c1ccc(N=C2NN=C(c3cc(F)ccc3F)CS2)cc1)N1CCOCC1	1%	-12%	0.8%	i	0.5	-28%	3.9%	1%
O=C(NC1CCCCC1)c1sc(=S)n2c1[nH]c(=O)c1ccccc12	3%	-7%	3.3%	i	1.6	-33%	-1.0%	-14%
O=S(=O)(Nc1nc(-c2sccc2Cl)cs1)c1cc(Cl)ccc1Cl	-7%	5%	8.2µM*	i	1.1	-72%	-0.2%	6%
CCN1CCc2c(sc(N)c2C(N)=O)C1	-11%	-1%	19%	i	0.0	-21%	2.4%	0%
Cc1noc(C)c1CSc1nc2ccccc2nc1NS(=O)(=O)c1ccc(Cl)cc1	39%	-3%	-2.4%	i	0.4	-59%	-1.4%	11%
Oc1c(Cl)cc(Cl)cc1/C=C/c1ccc2cccc(O)c2n1	2%	-1%	12%	i	0.2	43%	-5.1%	-3%

10 of these compounds, reformatted:
Sequence of screens – Salmonella PhoP GFP | SIAH1 antagonists | HIV peptide binding | Myeloid diff 2 | Myeloid diff 2 GFP+ MAC1+ % | KOR beta-arrestin-1 | KOR beta-arrestin-2 | LYP phosphatase
> N#CC1=C(N)C(C#N)(C#N)C(c2cccnc2)C2CC(c3ccccc3)CC=C12 (stereo not given)
 : 0% | 3% | 1.5% | i | 0.2 | -12% | 4.8% | -5%
> CCOc1ccc(-n2c(C)c(C(C)=O)c3cc(OC(C)=O)ccc32)cc1
 : -1% | 4% | 0.9% | i | 0.4 | -4% | -1.8% | -5%
> C/C(=N\NC(=O)c1nnn(-c2nonc2N)c1-c1ccccc1)c1ccccc1O
 : -5% | 8% | -0.4% | ? | · | -41% | -5.4% | -8%
> C=CCNC(=S)N/N=C(\C)c1ccccn1
 : -1% | -9% | 0.2% | ? | · | 3.3µM* | 7.1% | -1%
> COc1cccc(-n2nnnc2S(C)(=O)=O)c1
 : 7% | 1% | 4.6% | ? | · | 22% | 0.4% | -7%
> O=S(=O)(c1ccc(N=C2NN=C(c3cc(F)ccc3F)CS2)cc1)N1CCOCC1
 : 1% | -12% | 0.8% | i | 0.5 | -28% | 3.9% | 1%
> O=C(NC1CCCCC1)c1sc(=S)n2c1[nH]c(=O)c1ccccc12
 : 3% | -7% | 3.3% | i | 1.6 | -33% | -1.0% | -14%
> O=S(=O)(Nc1nc(-c2sccc2Cl)cs1)c1cc(Cl)ccc1Cl
 : -7% | 5% | 8.2µM* | i | 1.1 | -72% | -0.2% | 6%
> CCN1CCc2c(sc(N)c2C(N)=O)C1
 : -11% | -1% | 19% | i | 0.0 | -21% | 2.4% | 0%
> Cc1noc(C)c1CSc1nc2ccccc2nc1NS(=O)(=O)c1ccc(Cl)cc1
 : 39% | -3% | -2.4% | i | 0.4 | -59% | -1.4% | 11%

High-throughput results deposited in PubChem by several laboratories.
